AID504770 = E. coli YBA685 growth inhibition, screen for V. cholerae RctB inhibitors. E. coli YBA685 rctB-dependent plasmid, OD600 growth, 3 h; hits give low values. z-score (no concentration beside the values). 130,000 tested, 0.27% active;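 active means z-score under -2 on both plates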;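 further: wells of about 30 µL received 100 nL stock; score is relative to mean and SD of the test wells; the first replicate is given; strong numbers were not always called active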
CapD inh = inhibitors of Bacillus anthracis CapD enzyme | purified CapD enzyme, fluorescence intensity read-out; hits give low values; some hits fall short of the stated cut | AID 492967 | 140,000 tested, 0.23% active | z-score (concentration not given with the values);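 active means z-score under -4 in either of two replicates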;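 further: stock transfer was 100 nL into about 40 µL; score is relative to mean and spread of the plate; one replicate is shown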
Starred values were filed as active, the others as inactive; nt = no result given. This is a subset; count on the stated rates, not on these rows.

SMILES	AID504770	CapD inh
Cc1ccc(NC(=O)c2c(F)cccc2Cl)c(C(=O)Nc2ccc(F)cc2)c1	nt	0.79
O=C(O)c1ccc(N2C(=O)C3C4c5ccccc5C(c5ccccc54)C3C2=O)cc1 (centres undefined)	nt	-1.25
CSc1nnc(CSc2ncccn2)n1C	-1.55	nt
CCOC(=O)N1CCN(S(=O)(=O)c2ccc(C(=O)Nc3ccc4sc(C)nc4c3)cc2)CC1	nt	-1.21
CC1C(=O)N(Cc2cccc(F)c2)c2ccccc2N1C(=O)c1ccccc1 (centres undefined)	nt	-0.295
CCOC(=O)COc1ccc(C23CC4CC(CC(C4)C2)C3)cc1	1.35	0.755
CC(C)N1C(=O)S/C(=C/c2cccnc2)C1=O	2	-2.15
CN1CCC(N(C)S(=O)(=O)c2ccc(F)cc2F)CC1	-0.5	nt
CON(C)S(=O)(=O)c1ccc(N=Cc2c(O)[nH]c(=O)[nH]c2=O)cc1	0.6	nt
COc1ccc(C(O)(C(=O)NNc2ccc(Cl)cc2)c2ccc(OC)cc2)cc1	nt	0.9
Cc1oc(-c2ccc(Cl)cc2)nc1CN1CCCC(C(=O)NC2CC2)C1 (centres undefined)	-0.35	0.27
Nn1c(Cc2cccs2)nc2ccccc2c1=O	0	nt

5 consecutive entries from above, for reference:
SMILES	AID504770	CapD inh
Cc1ccc(NC(=O)c2c(F)cccc2Cl)c(C(=O)Nc2ccc(F)cc2)c1	nt	0.79
O=C(O)c1ccc(N2C(=O)C3C4c5ccccc5C(c5ccccc54)C3C2=O)cc1 (centres undefined)	nt	-1.25
CSc1nnc(CSc2ncccn2)n1C	-1.55	nt
CCOC(=O)N1CCN(S(=O)(=O)c2ccc(C(=O)Nc3ccc4sc(C)nc4c3)cc2)CC1	nt	-1.21
CC1C(=O)N(Cc2cccc(F)c2)c2ccccc2N1C(=O)c1ccccc1 (centres undefined)	nt	-0.295

(next part)
SMILES	AID504770	CapD inh
O=C(COc1cccc(OCC(=O)Nc2ccccn2)c1)Nc1ccccn1	1	0.89
CC1SCC(=O)N(c2cccc(C(F)(F)F)c2)C1=O (centres undefined)	0.5	0.095
Oc1ccccc1-c1nnc(COc2ccccc2)o1	-0.1	1.18
COc1cc(Cl)c(C)cc1NC(=O)CN1C(=O)C2CC=CCC2C1=O (centres undefined)	-0.35	nt
CC(C)Cn1cc(NC(=O)NCC2CCCO2)c2ccccc2c1=O (centres undefined)	0.15	26.9
Cc1ccc(NC(=S)NCCO)c(C)c1	nt	-0.435
COc1ccc(CN2C(=O)NC(=O)/C(=C\c3cc(OC)c(OC)c(OC)c3)C2=O)cc1	nt	0.45
Cc1cc(Cl)nc(NN)c1C#N	-0.5	0.03
O=C(O)COCC(=O)NC1CCN(Cc2c(F)cccc2Cl)CC1	2.1	-0.27
Cc1nn(CCC#N)c(C)c1Sc1ncccn1	2.35	-1.18
CCc1ccc2nc(Cl)sc2c1	-1.3	nt
CN(CCC#N)C(=O)c1cc2c(s1)-c1ccccc1OC2	-0.25	102
CCC(C(=O)Nc1ccc(C(=O)N(C)C)cc1)c1ccccc1 (centres undefined)	2.45	nt
CCOC(=O)C(C)N1C(=O)S/C(=C/c2ccc(-c3ccccc3C(=O)O)o2)C1=O (centres undefined)	-0.3	0.115
CC(=O)NC(C)c1cc(C(C)(C)C)c(O)c(C(C)(C)C)c1 (centres undefined)	-0.25	-0.17
O=C(/C=C/c1ccc(Br)o1)NCCCN1CCOCC1	1.45	0.06
COc1cc(OC)cc(C(=O)NCC(=O)NCc2ccccn2)c1	-0.4	nt
Clc1ccc(NCc2cccnc2)cc1	nt	0.185
Cn1cnc(SCC(=O)N2c3ccccc3Sc3ccccc32)n1	nt	0.27
CCCCC(=O)O/N=C1\C(=O)N(Cc2ccc(Cl)cc2)c2ccc(C)cc21	nt	-0.15
C=CCN1C(=O)/C(=C/c2ccco2)S/C1=N/S(=O)(=O)c1ccccc1	0.65	nt
COC(=O)C1=C(C(=O)OC)SC(=C2C(=S)C(C)(C)N(C(=O)c3ccc(-c4ccccc4)cc3)c3ccc(OC)cc32)S1	nt	-0.465
CCOC(=O)Nc1ccc2c(COC(=O)c3cccc(OCc4c(C)noc4C)c3)cc(=O)oc2c1	1.25	nt
O=C1Nc2ccccc2O/C1=C\c1ccc(C(=O)N2CCN(c3ccccn3)CC2)cc1	-0.05	10.3
CCc1nc2ccccc2n1CC(O)COc1ccc(Cl)cc1 (centres undefined)	0.7	0.025
O=C(CCS(=O)(=O)c1cccc2nsnc12)NCc1ccccc1	0	-1.05
COc1cc(OC)cc(C(=O)NCc2cccc(C)c2C)c1	nt	-0.455
CCOc1ccc(S(=O)(=O)N2CCN(C(=O)c3cc(S(=O)(=O)N4CCOCC4)ccc3C)CC2)cc1	0	nt
CCCCc1ccc2nc(NC(=O)OC)[nH]c2c1	nt	-0.965
CN(CC(=O)Nc1ncn[nH]1)S(=O)(=O)c1ccc(Cl)cc1	-1.05	nt
Nc1nc(CCC(=O)O)nc(Nc2ccccc2)n1	-0.25	nt
COC(=O)C1=C(N)C(=O)N(c2ccc(C(=O)OC)cc2)C1	2.05	7.96
Cc1nn(C)c(Cl)c1S(=O)(=O)N(C)C	0.15	0.005
CC(OC(=O)c1ccccc1OC(F)F)C(N)=O (centres undefined)	-0.9	nt
O=c1cc(CSc2nc(NCc3ccccc3)c3ccccc3n2)nc2ccccn12	nt	1.77
Cc1nc(COC(=O)[C@H](C(C)C)N2C(=O)c3ccccc3C2=O)cs1	-0.35	nt

Copied from the list.
In AID504770, `CCOc1ccc(S(=O)(=O)N2CCN(C(=O)c3cc(S(=O)(=O)N4CCOCC4)ccc3C)CC2)cc1` reads 0
In AID504770, `O=C(CCS(=O)(=O)c1cccc2nsnc12)NCc1ccccc1` reads 0

Continuation:
SMILES	AID504770	CapD inh
CN(C)c1ccc(/C=c2\sc3nc4ccccc4n3c2=O)cc1	-0.75	-0.045
FC(F)(F)c1cccc(N2CCN(C(=S)Nc3ccccc3)CC2)c1	1.55	-0.215
Cc1sc(-c2ccccc2)nc1CC(=O)NNC(=O)Cn1cnc(Cl)c1Cl	nt	-1.5
CCCN(CCC)C(=O)CSc1nc2c(sc(=S)n2-c2ccccc2C)c2nc3ccccc3n12	nt	-0.285
CCN1CCC(N(C)CCc2ccccc2)CC1	1.2	0.055
CN1CCN(S(=O)(=O)c2ccc(SCC(=O)c3c[nH]c4ccccc34)nc2)CC1	0.1	nt
CC(=O)N1CCCc2cc(S(=O)(=O)CCC(=O)O)ccc21	-0.4	0.715
CCOC(=O)Cn1cnc2c(oc3ccccc32)c1=O	-0.9	-0.235
Cc1cc(C)c(C2=NON3N(C(=O)c4ccc(Br)cc4)c4ccccc4N23)c(C)c1	nt	-0.36
Cc1ccc(OC(=O)CN2C(=O)c3ccccc3C2=O)cc1C	-0.4	0.085
CCN(CC(=O)NC1CCS(=O)(=O)C1)C(=O)c1cc2ccccc2o1 (centres undefined)	2.25	nt
CSc1ccc(Cl)c(C(=O)OCC(=O)N2CCc3ccccc32)c1	0.75	0.21
CCOC(=O)N1CCN(C(=O)c2c[nH]c3ccc(S(=O)(=O)N4CCN(c5ccc(F)cc5)CC4)cc3c2=O)CC1	nt	2.15
COC(=O)C1(C(=O)OC)C2C3C4CC5C6C4C2C6C1C53 (centres undefined)	0.35	nt
C/C(=N\NC(N)=O)C1(C)CC2(CC(C)(C)OC2=O)C(=O)O1 (centres undefined)	-1.15	0.35
N#Cc1ccc(OCC(=O)NC2CCCC2)cc1	0.25	0.27
COC1=CC(=C2C=CC(=[N+](C)C)C=C2)Oc2ccccc21	-0.55	0.6
COc1ccc(CC(O)CN2CCOCC2)cc1 (centres undefined)	-0.6	0.58
O=C(COc1cccc(Oc2ccccc2)c1)N1CCN(c2ccccc2)CC1	-1.05	0.53
CC1CC(C)CN(C(=O)CSc2nnc(Cc3ccccc3)o2)C1 (centres undefined)	-0.5	-0.02
Cc1ccc(N2C(=O)C(N3C(=O)c4ccc([N+](=O)[O-])cc4C3=O)C2c2ccc(F)cc2)cc1Cl (centres undefined)	nt	-0.57
COC(=O)c1ccccc1NC(=O)CSc1nnnn1-c1ccc2c(c1)OCO2	-0.55	nt
Oc1c(Br)cc(Br)cc1C=Nc1ccccc1F	-0.35	-0.865
Cc1ccc2nc(CSc3nc4ccccc4c(=O)[nH]3)cc(=O)n2c1	-0.6	nt
CN(C)c1nc(C(=O)O)nc(N2CCOCC2)n1	-2.2	0.96
N#C/C(=C\N)S(=O)(=O)c1ccc(Cl)cc1	nt	-0.58
COc1ccc(CC2=C(O)c3ccccc3C(=O)C2=O)cc1	-0.8	-0.595
Cc1nn(-c2ccccc2)nc1CNS(=O)(=O)c1ccc2c(c1)OCCN2C	-0.65	1.68
O=S(=O)(CCN1CCC(C(F)(F)F)CC1)c1ccccc1	-0.7	0.07
CCOc1ccccc1NC(=O)CN(c1nccs1)S(=O)(=O)c1ccc(N)cc1	-0.75	nt
O=C(Cn1c2ccccc2c(=O)c2cc(Cl)ccc21)Nc1ccc(OCc2ccccc2)cc1	nt	0.395
O=C(COC(=O)Cc1cccc(C(F)(F)F)c1)NC1CCCCC1	-0.35	-0.115
O=C(O)c1cc(Cl)c[nH]1	0.95	nt
COC(=O)C1=C(C)NC2=C(C(=O)CC(c3ccccc3OC)C2)C1c1ccc(OC)c(Br)c1 (centres undefined)	nt	10.1
O=C1CC(Sc2nnc(-c3ccccc3O)o2)C(=O)N1c1ccccc1 (centres undefined)	0.5	2.52
CC(Oc1ccc(Cl)cc1Cl)C(=O)NC1=NN(c2ccccc2)C(=O)C1 (centres undefined)	-0.25	-0.94

Profiles from above. Order of values: AID504770 | CapD inh
Cc1nn(-c2ccccc2)nc1CNS(=O)(=O)c1ccc2c(c1)OCCN2C reads -0.65 | 1.68
COc1ccc(CC2=C(O)c3ccccc3C(=O)C2=O)cc1 reads -0.8 | -0.595
O=C(O)c1cc(Cl)c[nH]1 reads 0.95 | nt
N#C/C(=C\N)S(=O)(=O)c1ccc(Cl)cc1 reads nt | -0.58
O=S(=O)(CCN1CCC(C(F)(F)F)CC1)c1ccccc1 reads -0.7 | 0.07

Continuation:
SMILES	AID504770	CapD inh
COc1ccc(/C=C2\SC(=O)N(CC(=O)Nc3nccs3)C2=O)cc1OC	nt	-0.145
COc1ccc(C(=O)c2sc3nc(N)c(C#N)c(-c4ccc(OC)cc4)c3c2N)cc1	nt	-0.285
O=[N+]([O-])c1ccc(Nc2nc(Cl)nc(NCc3ccco3)n2)cc1	nt	0.175
CS(=O)(=O)c1ccc(CC(=O)NCCN2CCOCC2)cc1	nt	-0.355
COc1cc(CN2CCN(CCOC(=O)N3CCN(c4ccc([N+](=O)[O-])cc4)CC3)CC2)cc2c1OCO2	nt	-2.09
CCSC1=N/C(=C\c2cccc(F)c2)C(=O)S1	-0.2	-0.155
COCCN(C(=O)C1CC1)c1nnc(-c2cc(OC)c(OC)c(OC)c2)s1	0.1	nt
CCC(=O)Nc1nc(-c2cccc([N+](=O)[O-])c2)nc2c1c(=O)oc1ccccc12	nt	0.1
Cc1c[nH]c(=S)c(C#N)c1	0.05	0.1
CCOc1ccc(Nc2nc(N)nc(CN3CC(C)CC(C)C3)n2)cc1 (centres undefined)	1.45	0.695
Cc1cccc(C(=O)Nc2ccccc2Sc2nc(C)cc(C)c2C#N)c1	nt	0.28
COc1ccc(OC)c2[nH]c(C(F)(F)F)nc12	1.05	0.19
CC1=Nc2cc(C(=O)N(C)Cc3ccccc3)ccc2Sc2ccc(Cl)cc21	-0.2	6.06
CCOC(=O)CCc1c(C)nc2c(c(C)nn2-c2ccccc2)c1C	1.35	1.41
Nc1c(C(=O)c2ccc3c(c2)OCCO3)oc2ccccc12	-0.7	nt
O=C(Cc1cc(=O)[nH]c(=O)[nH]1)N1CCN(c2cccc(Cl)c2)CC1	-0.3	nt
CC(=O)N/N=C/c1cc(C(C)C)cc(/C=N/NC(C)=O)c1O	-0.75	nt
CCOc1ccccc1NC(=O)Cn1cnc2c(nnn2Cc2ccc(F)cc2)c1=O	-1.2	0.185
O=C(O)CCN1CCN(c2ccccn2)CC1	0.35	nt
O=C1CC(c2cccc(C(F)(F)F)c2)C2=C(CCCC2=O)N1 (centres undefined)	-0.25	2.89
S=C(NCc1ccccc1)N1CCCCCC1	-0.35	nt
CCN(CC)C(=O)C1c2ccccc2C(=O)N2CCc3cc(OC)c(OC)cc3C12 (centres undefined)	-0.6	0.09
CC(C)(C)c1cc(C(C)(C)C)n(-c2ccc(C(=O)NN)cc2)n1	-0.55	-0.18
CC(C)CCn1nc(C(=O)OCC(N)=O)c2ccccc2c1=O	-0.4	nt
O=C(O)c1ccccc1S(=O)c1cccc2cccc(CO)c12 (centres undefined)	-0.95	-0.96
CCOc1ccsc1C(=O)Nc1ccc(OC(F)(F)F)cc1	1.25	-0.855
Cc1ccc(S(=O)(=O)CCN2CCN(c3ccccc3)CC2)cc1	-0.4	0.215
CC(C)CC1N=C2c3ccccc3N=C(SCC(=O)NCCc3ccc(S(N)(=O)=O)cc3)N2C1=O (centres undefined)	-1	83.2
CC(=O)Nc1nonc1NC1=CC(=O)CC(C)(C)C1	-0.35	0.14
Cn1c(CNC(=O)c2ccco2)nnc1SCC(=O)c1ccccc1	-1	-0.63
COc1cc(C2C(C#N)=C(N)Oc3n[nH]c(-c4ccc(C)cc4)c32)ccc1OC(=O)c1ccco1 (centres undefined)	nt	-0.155
Cc1ccc(-c2nc(CS(=O)CC(=O)NCCN3CCCC3)c(C)o2)cc1 (centres undefined)	-0.6	-0.195
CC(C)Oc1ccc(C(=O)NC(CC(=O)O)c2ccccc2)cc1 (centres undefined)	1.15	3.41
CSc1ccc(C2C(C(=O)Nc3cccc(C(F)(F)F)c3)=C(C)NC3=C2C(=O)CC(C)(C)C3)cc1 (centres undefined)	nt	37.5
O=C(NCc1ccccc1)c1ccc(CS(=O)(=O)c2ccccc2)o1	-0.35	-0.38
NS(=O)(=O)c1ccc(NC(=O)CN2CCCc3ccccc32)cc1	-0.3	1.35
CCOC(=O)c1oc2ccccc2c1Cn1nnc(-c2ccccc2)n1	-0.6	nt

Bioassay records: PubChem, ICCB-Longwood Screening Facility, Harvard Medical School
